YopH inh – blocks Yersinia enterocolitica YopH tyrosine phosphatase | actives 0.16% (n = 140,000) | fluorescence Ex485/Em525 | inhibition, %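 (about 10 µM by stock and volumes)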;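 active = inhibition of 50% or more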;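 also: controls were vehicle for no effect and minimum signal wells for full effect; inactives centre near -20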
Mtb betalactam – beta-lactam sensitization of Mtb H37Rv; M. tuberculosis H37Rv growth with meropenem, percent inhibition; hits of this screen are not shown here; actives 0.27% (n = 330,000); inhibition, % at 25 µM;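 active = about 74% or more and at least 40 points above the plate without the antibiotic, then above 30% in a dose series; inconclusive = first-round hits that could not be retested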;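 also: growth measured after seven days incubation then overnight dye step; 0% = bacteria only wells and 100% = bacteria with antibiotic; twin plates without the antibiotic show which effects depend on it; some results filed as inactive read as strong as hits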
RecA intein inh – inhibitors of M. tuberculosis RecA intein splicing | AID 2221 | P9WHJ3 | inhibition, %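 (about 9 µM by stock and volumes)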 | actives 0.75% (n = 290,000) | cell-free RecA intein splicing, fluorescence; in the data active = inhibition above about 30%; inconclusive = no clear call, values can overlap the other calls;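 also: 0% = vehicle wells and 100% = reference inhibitor control wells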
Target sequence (P9WHJ3 whole entry, looked up): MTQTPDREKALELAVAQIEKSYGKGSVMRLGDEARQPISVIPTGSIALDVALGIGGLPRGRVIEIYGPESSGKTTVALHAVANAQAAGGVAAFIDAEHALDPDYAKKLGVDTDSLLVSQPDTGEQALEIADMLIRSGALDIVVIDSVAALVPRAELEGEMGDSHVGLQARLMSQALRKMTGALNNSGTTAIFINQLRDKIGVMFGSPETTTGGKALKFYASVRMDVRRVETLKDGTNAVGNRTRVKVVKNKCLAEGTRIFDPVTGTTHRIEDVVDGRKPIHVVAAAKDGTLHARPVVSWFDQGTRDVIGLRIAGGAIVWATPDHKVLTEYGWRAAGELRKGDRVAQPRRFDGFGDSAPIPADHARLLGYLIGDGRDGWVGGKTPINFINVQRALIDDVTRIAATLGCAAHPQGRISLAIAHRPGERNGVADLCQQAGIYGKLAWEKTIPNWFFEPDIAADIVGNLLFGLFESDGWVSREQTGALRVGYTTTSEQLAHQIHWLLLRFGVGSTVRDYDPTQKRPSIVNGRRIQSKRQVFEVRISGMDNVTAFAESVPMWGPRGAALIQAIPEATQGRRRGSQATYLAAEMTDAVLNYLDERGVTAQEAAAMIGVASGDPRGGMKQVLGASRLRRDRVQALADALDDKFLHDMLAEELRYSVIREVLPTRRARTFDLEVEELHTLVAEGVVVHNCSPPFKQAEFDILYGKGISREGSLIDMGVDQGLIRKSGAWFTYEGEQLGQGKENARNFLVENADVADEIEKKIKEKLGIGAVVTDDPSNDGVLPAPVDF
Arbovirus anti – arbovirus infection inhibition; arbovirus infection cell-based antiviral screen; inhibition, % at 10 µM; actives 0.37% (n = 200,000);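 active = inhibition from about 30%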;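 also: bluetongue infection of BSR cells; cell survival read as ATP light after 72 h; 0% = infected wells without compound and 100% = uninfected wells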
Mtb H37Rv – M. tuberculosis H37Rv growth inhibitors, H37Rv strain (AID 1626); inhibition, % at 10 µM, or IC50 in µM where a hit was titrated; M. tuberculosis H37Rv growth inhibition; higher % means a stronger effect; actives 0.95% (n = 220,000);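 active = confirmed in a dose series; inconclusive = inhibition above 80% but not taken into the dose series; inactive = below 80% or under 30% at every dose of the series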;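 also: bacteria incubated seven days before Alamar blue readout; 0% = bacteria only wells and 100% = bacteria with antibiotic wells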
Arbovirus anti repeat – second read-out of Arbovirus anti, no call of its own (marks repeat the call); inhibition, %; measured here: 10K subset replicate screen; many hits read low in the repeat;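 first of two repeat runs on a subset; 0% = infected and 100% = uninfected wells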
Numbers without * were called inactive; ? = inconclusive; nt = not tested or not shown.

SMILES	YopH inh	Mtb betalactam	RecA intein inh	Arbovirus anti	Mtb H37Rv	others
COC(=O)c1nc(-c2ccc3c(n2)C(=O)C(N)=C(OC)C3=O)c(N)c(-c2ccc(OC)c(OC)c2O)c1C	nt	66	94*	nt	>100µM*
Cc1ccc(-n2nc3c(c2NC(=O)c2ccc4c(c2)OCO4)CSC3)cc1	-25	-4	-3.5	-1	1%
O=C(COC(=O)C1CCN(c2ccc(C(F)(F)F)cn2)CC1)NC1CCCCC1	nt	-2	-2.3	nt	nt
COC(=O)c1c(NC(=O)/C=C/C(=O)O)sc(C)c1-c1ccc(C(C)C)cc1	nt	8	77*	-25	4%
CCCN1CCc2c(sc(NC(=O)CCS(=O)(=O)c3ccccc3)c2C(N)=O)C1	nt	?	-15	nt	nt
CC(=O)C1[C@H](N(C)C)CC2C3CC=C4CC(O)CC[C@]4(C)C3CC[C@@]21C (stereo not given in full)	nt	-8	1.4	nt	nt
Cn1c(=O)c2c(nc(CN3CCN(c4ccccc4)CC3)n2Cc2ccccc2Cl)n(C)c1=O	-38	nt	2.4	-4	-6%
C=C(C)C1CC=C(C)/C(=N/NC(=O)c2ccc(NC(=O)CC)cc2)C1 (stereo not given)	-4	8	-1.5	-9	2%
C/C(=N\NC(=O)COc1ccccc1[N+](=O)[O-])c1cccc(NC(=O)c2ccncc2)c1	nt	-1	-6.2	nt	nt
CC(C)n1nc(C(=O)OCC(=O)N2CC(=O)Nc3ccccc32)c2ccccc2c1=O	nt	-4	2.5	5	-3%
O=C(CN(Cc1ccccc1Cl)C(=O)CNS(=O)(=O)c1ccccc1)NCC1CCCO1 (stereo not given)	nt	-2	5.0	nt	nt
CCCCn1c(N)c(N(CCOC)C(=O)C2CCCN(C(=O)c3ccc(Cl)cc3)C2)c(=O)[nH]c1=O (stereo not given)	nt	2	-3.0	nt	nt
CCOC(=O)CSc1nnc(Cc2cc(=O)[nH]c(=O)[nH]2)n1-c1ccc(Cl)cc1	-44	-4	-1.2	2	-11%	Arbovirus anti repeat=6
Cc1[nH]c2ccccc2c1/C=C/c1nc2ccccc2c(=O)n1-c1cccc([N+](=O)[O-])c1	-26	-2	-0.2	-2	nt
CC(=C/C(=O)O)/C(=C\c1ccc(Br)o1)C(=O)O	nt	-3	-1.2	nt	-7%
O=C(COc1ccccc1Cl)NC(=S)Nc1ccc(CN2CCOCC2)cc1	-22	49	-2.7	7	-9%
CCOC(=O)C1CCCN(c2cc(C)nc3cc(-c4ccc(Cl)cc4)nn23)C1 (stereo not given)	31	13	-1.5	4	5%
CC1Sc2ccc(C(=O)Nc3ccccc3OC(F)F)cc2NC1=O (stereo not given)	nt	2	0.6	nt	nt
Cc1c(CN2CCC(CO)(Cc3cccc(C(F)(F)F)c3)CC2)c2ccccc2n1C	nt	93	0.2	-26	3%
CCCN1C=CC(=CC=C(C#N)C#N)C=C1	nt	-10	-11	nt	-5%
CCCCc1ccc(NC(=S)N2CCC(O)CC2)cc1	nt	0	1.3	-3	5%
Cc1ccc(-n2nnc3c(SCC(=O)NCC4CCCO4)ncnc32)cc1 (stereo not given)	-31	72	40*	5	-4%
COC(=O)c1ccc(NC(=O)CSC2=NCCN2)cc1	-11	80	2.9	8	>100µM*
CCOC(=O)c1c(C)[nH]c(C)c1S(=O)(=O)N(C)CC(=O)Nc1ccccc1F	nt	4	1.0	nt	nt
CCc1cc2ccc(OC)cc2nc1SCC(=O)NNC(C)=O	nt	-1	1.8	-1	3%

A run of entries taken from the entries so far, as a working copy:
SMILES	YopH inh	Mtb betalactam	RecA intein inh	Arbovirus anti	Mtb H37Rv	others
COC(=O)c1nc(-c2ccc3c(n2)C(=O)C(N)=C(OC)C3=O)c(N)c(-c2ccc(OC)c(OC)c2O)c1C	nt	66	94*	nt	>100µM*
Cc1ccc(-n2nc3c(c2NC(=O)c2ccc4c(c2)OCO4)CSC3)cc1	-25	-4	-3.5	-1	1%

The listing continues.
SMILES	YopH inh	Mtb betalactam	RecA intein inh	Arbovirus anti	Mtb H37Rv	others
CN(C)C=Nc1ncc2c3ccccc3n(CCN(C)C)c2c1C#N	-6	9	0.1	-12	9%
CCOC(=O)c1nc(-c2ccccc2)oc1N1CCOCC1	nt	-8	1.1	11	-2%
CC1=NN(c2ccc(F)cc2)C(=O)C1C(c1cccc(O)c1)c1c(C)[nH]n(-c2ccc(F)cc2)c1=O (stereo not given)	-17	2	97*	9	7%
CNC(=O)C(=O)NCC1OCCCN1S(=O)(=O)c1ccc2c(c1)OCCO2 (stereo not given)	nt	9	1.9	nt	nt
Cc1cc(C(=O)CSc2nnc(-c3ccco3)o2)c(C)n1Cc1ccco1	-25	-3	0.1	31*	nt
O=C(CCNS(=O)(=O)c1ccc(Br)cc1)N1CCCCCCC1	nt	-5	0.3	nt	nt
Cc1ccccc1OCCNC(=O)/C=C/c1ccc([N+](=O)[O-])cc1	-6	?	-3.5	6	14%
Clc1ccccc1-c1nc(/C=N/N2CCOCC2)c2ccccn12	nt	3	-2.2	-1	-1%
CCN(CC)CCC/C(=N\O)C(O)(c1ccccc1)c1ccccc1	nt	3	0.0	6	0%
COc1ccc(CNC(=O)C2CCC(CNS(=O)(=O)c3cccc4cccnc34)CC2)cc1 (stereo not given)	nt	-2	2.4	nt	nt
COCCNC(=O)c1cnn2c(C(F)(F)F)cc(-c3ccc4c(c3)OCO4)nc12	-51	0	-73	-1	1%
COc1cc(OC)nc(NC(=O)CCl)n1	7	4	8.1	5	-10%
O=C(O)CCc1cccnc1	nt	-2	-1.8	nt	-5%
Cn1cc(C(=O)NCc2ccc(Cl)cc2)c(=O)c2cc(S(=O)(=O)N3CCOCC3)ccc21	nt	-1	-0.3	nt	nt
Cc1cnn(C(=S)NCc2ccco2)c1	-20	11	6.5	4	-3%
O=C(Nc1cccn(Cc2c(Cl)cccc2Cl)c1=O)C1CC1	nt	3	2.4	5	7%
CCCCC(NC(=O)CCc1c(C)c2cc3c4c(oc3c(C)c2oc1=O)CCCC4)C(=O)O (stereo not given)	nt	-3	-0.3	nt	nt
CCOC(=O)N1CCN(CC(O)COCc2ccc(OC)c(OC)c2)CC1 (stereo not given)	-28	5	0.2	6	2%
CCOC(=O)C1CCN(S(=O)(=O)c2ccc(C)c(C(=O)NC3CCCCC3)c2)CC1	nt	-19	0.5	nt	nt
CCc1nc(C)ccc1OCC(=O)NCCCN(C)C	-6	0	-1.3	2	-1%
C1CCC2(CC1)OCC1(CO2)COC2(CCCCC2)OC1	-21	18	1.4	3	-6%
c1coc(-c2nc3nc4ccccc4nc3n2-c2ccc3c(c2)OCCO3)c1	-26	nt	nt	2	12%
Cc1ccc(C)c(OCc2cc(C(=O)N3CCOCC3)no2)c1	nt	0	-3.7	nt	nt
CC(=O)N1CCN(C(=O)c2ccc3oc(CCCc4ccccc4)nc3c2)CC1	nt	-7	2.1	nt	nt
CCc1cccc(N(C(=O)c2csnn2)C(C(=O)NC(C)(C)C)c2ccccn2)c1 (stereo not given)	nt	-7	-1.6	0	-6%

Structural class: the compounds so far with a CF3 group
SMILES	YopH inh	Mtb betalactam	RecA intein inh	Arbovirus anti	Mtb H37Rv	others
O=C(COC(=O)C1CCN(c2ccc(C(F)(F)F)cn2)CC1)NC1CCCCC1	nt	-2	-2.3	nt	nt
Cc1c(CN2CCC(CO)(Cc3cccc(C(F)(F)F)c3)CC2)c2ccccc2n1C	nt	93	0.2	-26	3%
COCCNC(=O)c1cnn2c(C(F)(F)F)cc(-c3ccc4c(c3)OCO4)nc12	-51	0	-73	-1	1%

Following part
SMILES	YopH inh	Mtb betalactam	RecA intein inh	Arbovirus anti	Mtb H37Rv	others
Cc1ccc(NC(=O)Nc2ccc3oc(C)nc3c2)cc1	-14	-6	-5.5	4	-7%
COC(=O)C1CCN(Cc2cc(=O)oc3cc(C)c(Cl)cc23)CC1	nt	1	0.9	nt	nt
CCOC(=O)Cc1csc(NC(=O)c2c(O)c3c(n(CC(C)C)c2=O)CCCC3)n1	nt	99	3.6	nt	72%
COc1ccc(OC)c(NC(=O)Cn2c(CCC(=O)O)ccc2-c2ccccc2)c1	-32	3	4.1	-8	3%
CCOC(=O)C1=C(C)OC(N)=C(C#N)C1c1cccs1 (stereo not given)	nt	-1	-5.8	7	-2%
O=C(Nc1nnc(-c2ccncc2)s1)C1CCCO1 (stereo not given)	0	-4	1.7	24	-7%
Cc1ccc(C(=O)N/C(=C\c2cn(S(=O)(=O)N(C)C)c3ccccc23)C(=O)NCCCn2ccnc2)cc1	nt	10	2.1	nt	nt
Cc1occc1C(=O)Nc1nccs1	-15	-4	0.4	4	0%
CCC(C)c1ccccc1NC(=S)Nc1cccnc1 (stereo not given)	-13	-1	3.7	3	2%
Cn1c(=O)c2c(nc(N/N=C/c3cccs3)n2Cc2ccccc2)n(C)c1=O	-17	2	-1.0	-5	4%
N#Cc1nc(COc2ccc(Cl)cc2)oc1N1CCCCCC1	-7	-2	nt	15	11%
COc1cc(C(C#N)N2CCC(c3ccccc3)=N2)ccc1O (stereo not given)	nt	-8	0.8	nt	33%
O=C(C1CCC(Cn2c(=S)[nH]c3ccccc3c2=O)CC1)N1CCOCC1 (stereo not given)	-55	?	-1.2	4	-5%
Cc1cc(-c2nn(-c3ccccc3F)cc2CN2CCCC(O)C2)c(C)s1 (stereo not given)	nt	24	-0.5	5	3%
O=C(NCc1ccc2c(c1)OCO2)C1CC(=O)N(c2ccc(Cl)cc2)C1 (stereo not given)	nt	3	-2.7	nt	nt
CCOc1ccc(OCC)c(NC(=O)CSc2nnc(Cn3cnc4ccccc43)n2C)c1	6	53	nt	6	9%
CCOC(=O)COn1c(=O)c(=O)n(OC)c2ccccc21	-26	2	5.6	4	-3%
O=C(NCc1ccco1)c1ccccc1-c1nc(-c2ccccc2)no1	-16	-3	1.9	0	-2%
CSCCC(NC(=O)c1ccc([N+](=O)[O-])cc1Cl)C(=O)OCC(=O)NC1CCCC(C)C1C (stereo not given)	2	-5	2.4	-7	-5%
Cn1c(SCC(=O)NNC(=O)c2ccc(Cl)cc2)nnc1-c1cccnc1	nt	-1	5.2	8	-2%
Cc1cccc(NC(=O)c2cc(S(=O)(=O)N3CCc4ccccc43)cn2C)c1C	nt	0	-1.0	nt	nt
Cc1cc(C(=O)N2CCN(C(c3ccccc3)c3ccccc3)CC2)on1	-40	3	7.0	-9	10%	Arbovirus anti repeat=-1
O=C(CCN1C(=O)c2ccccc2C1=O)N1CCOCC1	-23	-4	nt	4	0%
O=S(=O)(c1cc(F)ccc1F)N1CCN(c2ccccn2)CC1	nt	-8	2.7	nt	nt
COC(=O)c1cc(S(=O)(=O)N(C)Cc2ccco2)c[nH]1	nt	-8	0.6	nt	nt
Continued:
SMILES	YopH inh	Mtb betalactam	RecA intein inh	Arbovirus anti	Mtb H37Rv	others
c1ccc(-c2nnc(CN3CCN(c4ccccc4)CC3)o2)cc1	nt	5	0.1	9	-3%
Cc1ccc(C)c(Nc2cc(C(=O)NCc3cccnc3)c3ccccc3n2)c1	nt	-4	4.0	nt	2%
CN1CC2([N+](=O)[O-])CC=C(OCCO)C([N+](=O)[O-])(C1)C2 (stereo not given)	-14	-2	0.3	1	-1%
COc1cccc(NC(=O)CNC(=O)Cn2cnc3sc(C)c(C)c3c2=O)c1	nt	4	0.9	nt	nt
COc1ccc(Nc2nc(-c3sc(C)nc3C)cs2)cc1	nt	50	8.9	nt	nt
CCn1nc(NS(=O)(=O)c2ccc(NC(C)=O)cc2)c2cc3ccccc3nc21	nt	-4	2.3	nt	nt
CS(=O)(=O)NCc1csc(-c2ccccc2)n1	-1	2	-1.7	5	1%
CC(=O)N1CCc2cc(Br)cc(S(=O)(=O)CCC(=O)N3CCN(c4ccccn4)CC3)c21	nt	1	0.2	9	-4%

In the list so far, 7 contain an NH in an aromatic ring:
SMILES	YopH inh	Mtb betalactam	RecA intein inh	Arbovirus anti	Mtb H37Rv	others
CCCCn1c(N)c(N(CCOC)C(=O)C2CCCN(C(=O)c3ccc(Cl)cc3)C2)c(=O)[nH]c1=O (stereo not given)	nt	2	-3.0	nt	nt
CCOC(=O)CSc1nnc(Cc2cc(=O)[nH]c(=O)[nH]2)n1-c1ccc(Cl)cc1	-44	-4	-1.2	2	-11%	Arbovirus anti repeat=6
Cc1[nH]c2ccccc2c1/C=C/c1nc2ccccc2c(=O)n1-c1cccc([N+](=O)[O-])c1	-26	-2	-0.2	-2	nt
CCOC(=O)c1c(C)[nH]c(C)c1S(=O)(=O)N(C)CC(=O)Nc1ccccc1F	nt	4	1.0	nt	nt
CC1=NN(c2ccc(F)cc2)C(=O)C1C(c1cccc(O)c1)c1c(C)[nH]n(-c2ccc(F)cc2)c1=O (stereo not given)	-17	2	97*	9	7%
O=C(C1CCC(Cn2c(=S)[nH]c3ccccc3c2=O)CC1)N1CCOCC1 (stereo not given)	-55	?	-1.2	4	-5%
COC(=O)c1cc(S(=O)(=O)N(C)Cc2ccco2)c[nH]1	nt	-8	0.6	nt	nt

High-throughput results deposited in PubChem BioAssay by several laboratories.

An excerpt; rates above refer to the full screens.
